# Rce1 inhib: blocks yeast Ras-converting enzyme; Q03530; yeast membranes, quenched prenylated peptide cleavage fluorescence; calls only; hit rate 0.27% among 290,000; AID 2563;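 active = fall in fluorescence gain of 50% or more versus controls, with final raw signal at or below 3038400; inconclusive = same 50% fall but final raw signal above 3038400; inactive = fall in fluorescence gain under 50%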;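 also: plate controls were neutral control wells for no effect and wells lacking membranes for full effect; tested at 10 µM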
# MT1-MMP act inh: inhibitors of human MT1-MMP activation | P50281 | HT1080 RFP-PRO-GFP cells, GFP/RFP ratio fluorescence, overnight; percent of plate control window, DMSO zero | GFP/RFP ratio change, % at 20 µM | hit rate 0.061% among 360,000;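 active = GFP/RFP ratio change of at least 30% with cell ATP level not reduced by more than half and red fluorescence within 50% of control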; also: strong numbers were not always called active
#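 Assay system – RFP-PRO-GFP reporter HT1080 cells · Compound dosing – single dose of 20 µM compound, 1% DMSO final · Incubation – overnight compound exposure at 37 °C · Measure – GFP/RFP fluorescence ratio · Benchmarks – DMSO wells and RFP-L50D-GFP cells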
# eIF4H inh: inhibitors of RNA binding by human eIF4H; Q15056; eIF4H fluorescence polarization binding assay; hit rate 0.94% among 290,000; inhibition, % at 35 µM;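 active = 50% or more with normal probe brightness, or confirmed in later tests; inconclusive = above 50% with abnormal brightness, or retests that disagree; inactive = below 50% or failed in later tests; about a fifth of its hits are not listed in these tables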;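 also: calls also rest on retests at 20 µM and on dose response follow-up; 0% = protein and probe with vehicle and 100% = probe without protein; strong numbers were not always called active; many hits fall short of the cut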
# CSC inhib: cancer stem cell inhibition. cancer stem cell-like cells viability, luminescence. inhibition, % at 7.5 µM. hit rate 1.1% among 300,000. AID 2717;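 active = mean at 75% or more and at least half the replicates too; inconclusive = mean and replicates disagree; tested in HMLE shEcad cells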;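 also: 0% = median of negative and 100% = median of positive control wells; the first replicate is given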
# PABP FP inh: PABP-poly(A) binding inhibition; PABP-poly(A) RNA binding, fluorescence polarization; inhibition, % at 35 µM; P11940; hit rate 1% among 290,000; AID 2014;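 active = 50% or more with normal probe brightness, or confirmed in later tests; inconclusive = above 50% with abnormal brightness, or retests that disagree; inactive = below 50% or failed in later tests; about a fifth of its hits are not listed in these tables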;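 also: calls also rest on retests at 20 µM and on dose response follow-up; controls were probe without protein and protein plus probe with vehicle; some compounds called inactive have numbers as strong as hits; many hits fall short of the cut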
# Target sequence (P11940 whole entry, looked up): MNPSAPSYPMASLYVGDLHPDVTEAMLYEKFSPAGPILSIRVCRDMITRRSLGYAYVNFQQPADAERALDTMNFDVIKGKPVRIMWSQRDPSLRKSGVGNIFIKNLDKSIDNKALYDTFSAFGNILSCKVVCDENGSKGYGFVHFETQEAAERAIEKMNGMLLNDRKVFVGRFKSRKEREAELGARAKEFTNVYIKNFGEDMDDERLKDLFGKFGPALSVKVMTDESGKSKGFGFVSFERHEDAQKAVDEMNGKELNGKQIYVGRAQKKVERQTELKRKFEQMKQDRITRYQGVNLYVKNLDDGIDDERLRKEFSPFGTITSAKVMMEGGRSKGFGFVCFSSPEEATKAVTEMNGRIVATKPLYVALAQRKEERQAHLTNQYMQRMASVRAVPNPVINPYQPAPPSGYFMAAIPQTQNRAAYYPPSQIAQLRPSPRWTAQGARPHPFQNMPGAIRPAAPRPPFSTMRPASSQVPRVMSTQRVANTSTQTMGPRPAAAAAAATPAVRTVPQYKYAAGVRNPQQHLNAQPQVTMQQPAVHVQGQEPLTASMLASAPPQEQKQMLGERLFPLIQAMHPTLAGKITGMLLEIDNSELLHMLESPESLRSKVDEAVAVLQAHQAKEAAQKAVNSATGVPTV
# UUG fidelity: modulators of start codon recognition fidelity in yeast. S. cerevisiae UUG-firefly luciferase reporter, luminescence/redox ratio. activity score, % at 18.7 µM. hit rate 0.13% among 350,000. AID 602363;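 active = replicate mean at a twofold rise or more, about +100% in these data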;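 also: firefly luciferase made from a UUG start codon reports start codon fidelity; reporter light over untreated wells divided by growth signal over untreated wells; some hits fall short of that in this replicate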
# Env fusion inh: HIV envelope-mediated fusion inhibition; HeLa-JRFL Env/CEM21 cell fusion, luciferase; inhibition, % at 12.3 µM; hit rate 1.1% among 360,000; AID 651610;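 active = mean replicate inhibition score of at least 50 and every replicate individually at or above 50; inconclusive = only one of the two criteria met; inactive = mean below 50 and not all replicates reaching 50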;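 also: 0% = plate neutral controls and 100% = maraviroc near 300 nM; one replicate is shown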
# eIF4H inh retest: also measured in eIF4H inh; calls as there; inhibition, %; compound at 20 µM; confirmation average;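 mean of two retest wells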
# PABP FP inh retest: recorded beside PABP FP inh, whose call it bears; inhibition, %; compound at 20 µM; confirmation repeats;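 mean of two retest wells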
# MT1-MMP act inh RFP: recorded beside MT1-MMP act inh, whose call it bears; RFP signal change, %; measured here: RFP expression control read;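 0 = vehicle wells; hits needed this value within 50% of zero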
# The depositor's hits bear a star; i = inactive; ? = inconclusive; / = no result given; + = active, no number; & = joins results of further samples; [ ] = dose if it differs, or a comment. Random draw from the library. About 2.9% of those tested had a hit in this group.
SMILES,Rce1 inhib,MT1-MMP act inh,MT1-MMP act inh RFP,eIF4H inh,CSC inhib,PABP FP inh,UUG fidelity,Env fusion inh,others
O=C(COC(=O)CNC(=O)c1ccc(Cl)cc1Cl)NC1CCCCC1,i,5,4,3,-9,1,13,-5,
O=C(Nc1nccs1)c1csc([C@H]2C[C@H](O)[C@@H](CO)O2)n1,/,1,4,/,/,/,-20,-10,
O=C(CSc1nnc2ccccn12)NNC(=O)c1ccccc1F,/,1,-4,/,1,/,/,-13,
CCn1c(CCNC(=O)c2cccs2)nnc1SCC(=O)c1ccc(OC)cc1,i,1,0,/,/,/,-16,19,
CCN1CCN(C(=O)CCN2C(=O)COc3ccc(C)cc32)CC1,i,1,3,-3,5,-1,-6,-7,
CCOC(=O)/C=C1\NC(C)(C)Cc2cc(OC)c(OC)cc21,i,-13,-14,-8,/,5,-12,-26,
CN(CC(=O)NCCc1ccc(S(N)(=O)=O)cc1)Cc1ccc(Cl)cc1Cl,i,-5,-24,-4,/,8,-3,43,
C[C@H](CO)N1C[C@H](C)[C@H](CN(C)CC2CCCCC2)Oc2ccc(NS(=O)(=O)c3ccc(F)cc3)cc2CC1=O,/,-2,2,/,-12,/,19&-1,-18,
COc1ccc(CCNC(=O)c2ccc(OCC(=O)N3CCOCC3)c(OC)c2)cc1,i,2,4,/,-10,/,9,-32,
CCc1nn2cc(C(=O)c3cc(C)ccc3O)cnc2c1-c1ccc(F)cc1,i,5,2,-8,-5,2,/,21,
NC(=O)CCN(C1CCCCC1)S(=O)(=O)c1cccc2nsnc12,i,-1,4,-4,-10,-5,-3,-1,
O=C(c1cc(=O)[nH]c2ccccc12)N1CCc2ccccc2C1,i,-3,1,-7,16,0,0,-14,
CN1CCN(C(CNC(=O)C(=O)NC2CCCC2)c2ccc(F)cc2)CC1 (stereo not given),i,-1,0,/,/,/,-6,1,
CC(C)C[C@@H](CSc1ccc(Br)cc1)N1CCN(CC(C)C)CCC1=O,i,-9,-14,-5,14,-2,-10,-10,
NC(=O)CC(NC(=O)c1ccccc1)c1ccc(NCCN2CCOCC2)c([N+](=O)[O-])c1 (stereo not given),i,-1,-6,1,-4,14,51,3,
COc1nc(N2CCOCC2)nc(-n2cccc2)n1,i,-1,0,-15,0,5,-7,8,
COc1ccc2[nH]cc(C(=O)CN3CCN(C4CCCCC4)CC3)c2c1,i,6,6,8,13,2,-7,/,
Clc1ccc(OCc2nnc3n2CCCCC3)c(Cl)c1,i,0,-3,-4,-4,5,/,-21,
COC(=O)c1sccc1NC(=S)N1CCN(C)CC1,i,-2,4,-7,-19,10,/,-3,
COC(=O)c1ccc(C)c(N(CCO)CCO)c1,i,1,-1,-6,-13,1,-1,-16,
CN(C)c1cccc(CNC(=O)c2csc([C@@H]3C[C@H](O)[C@@H](CO)O3)n2)c1,/,-4,2,/,/,/,-16,-11,
COc1ccc(S(=O)(=O)NNC(=O)c2csc(-n3nc(C)cc3C(F)(F)F)n2)cc1OC,i,0,-3,-4,-12,-2,7,-55,
CC1=CC(C)C(/C=N/n2cnnc2)C(C)C1 (stereo not given),i,-1,-3,8,-12,10,-11,/,
O=C(CNC(=S)N(Cc1ccccc1)Cc1cccnc1)NCCN1CCOCC1,i,4,-2,0,11,-10,/,0,
CCOc1ccc(NC(=S)Nc2cccnc2)cc1,i,-4,-3,?,-7,?,/,-6,
NC(=O)c1ccc(NC(=O)COc2ccc(-n3cnnn3)cc2)cc1,/,4,4,/,-16,/,-12,-24,
Cc1cccc(C)c1-n1nnnc1SCC(=O)N1CCNC1=O,/,5,7,/,/,/,-9,12,
CCCCCCNC(=O)C(=O)NCCc1ccc(Cl)cc1,i,3,4,-3,-6,7,/,-17,
CN1C(=O)/C(=N/OC(=O)c2ccccc2)c2ccccc21,i,-1,1,7,-3,12,/,/,
CCn1c(SCC(=O)Nc2sc3c(c2C#N)CCCC3)nnc1-c1ccncc1,i,-5,2,-4,-2,-20,/,-34,
CCn1c(SCC(=O)NCc2ccccc2)nnc1C(CO)NC(=O)c1ccccc1 (stereo not given),i,0,0,/,-17,/,-3,-3,
Cc1cc(C)n(Cc2ccc(Cl)nc2)n1,i,1,1,6,/,-15,-16,1,
CCOc1ccccc1N1CC(O)=C(c2nc3ccccc3s2)C1=N,i,3,-14,6,65,12,-12,/,
O=C(NCCCc1ccc(F)cc1)C1CCC(=O)N(CCCN2CCCC2=O)C1 (stereo not given),i,0,0,-12,13,1,-7,-6,
O=c1[nH]sc2ccccc12,i,4,2,-4,/,13,/,-21,
CC(=O)Nc1ccc(S(=O)(=O)n2cnc3ccccc32)cc1,i,5,6,-7,13,6,-7,8,
Cc1ccc(C)c(OCCC(=O)OCC(=O)NCc2ccccc2)c1,i,3,1,/,-3,/,-8,-11,
CCCCNC(=O)c1ccc2c(c1)N(C)C(=O)c1ccccc1S2,i,5,4,-3,-2,4,2,-98,
COc1cc(/C=C/C(=O)OCC(=O)NCCc2ccccc2)cc(OC)c1OC,i,-1,-1,-4,8,?,/,28,
Cc1nn(CCC(=O)O)c2nc(-c3cccnc3)cc(C(F)(F)F)c12,+,6,12,-6,-4,26,-12,/,
CC(=O)Nc1ccc(N/C=C/C(=O)c2ccc(Cl)cc2)cc1,/,-3,5,-11,6,-22,12,-10,
COc1ccc(C(=O)N=C2SC3CS(=O)(=O)CC3N2Cc2ccc(F)cc2)cc1 (stereo not given),i,-1,-5,3,-18,12,-22,8,
COc1ccc(-c2nc(CS(=O)(=O)CC(=O)NCc3ccc4c(c3)OCO4)c(C)o2)cc1,i,1,2,-7,18,7,-2,-5,
CCCOc1ccccc1/C=C(\C#N)C(=O)Nc1cccc(C)n1,i,-1,1,-6,5,-5,-14,-2,
COc1ccc(O)c(CN2CCN(CCc3ccccc3)C(CCO)C2)c1 (stereo not given),i,-7,-2,-3,-4,-8,/,-16,
CCOC(=O)c1ccc(S(=O)(=O)NCC(c2ccc(N(C)C)cc2)c2c[nH]c3ccccc23)cc1 (stereo not given),i,-7,0,12,-8,14,-7,/,
COc1ccc(-c2nc(SC(CC(=O)NCCN3CCOCC3)c3cccs3)n[nH]2)cc1 (stereo not given),i,0,3,1,-6,-2,-43,3,
Cc1cc(C(C)(C)C)ccc1OCC(=O)N/N=C\c1c(C)n(C)n(-c2ccccc2)c1=O,i,3,-5,8,/,1,-20,0,
CC(O)c1ccc(-n2cnnn2)cc1 (stereo not given),i,0,3,-1,-1,-2,/,14,
Cc1coc2c1c(C)cc1oc(=O)c(Cc3ccccc3)c(C)c12,i,-7,-6,-5,-2,5,-12,3,
COCCn1c(SCC(=O)Nc2cccc(C(=O)OC)c2)nc2ccccc2c1=O,i,-2,-2,-1,-5,-2,18,-25,
Cc1ccc(-n2nc(C(=O)N3CCOCC3)cc2-c2ccc(Cl)cc2)cc1,i,-7,-4,13,8,-6,/,/,
Cc1ccc(C(C)C)cc1OCC(=O)Nc1ccc(N2CCCCC2)cc1,i,0,1,/,23,/,-15,-1,
CC(C)CCN(C(=S)Nc1cccc(C(F)(F)F)c1)C(C)c1ccccn1 (stereo not given),i,4,1,-16,24,-6,-14,14,
CCOc1cccc2sc(N(CCN(C)C)C(=O)c3ccc(Br)s3)nc12,i,1,3,-7,-16,-7,/,-19,
Cc1ccccc1NC(=O)COC(=O)c1cccnc1,i,-2,-1,-1,1,-4,/,19,
CCOc1ccc(OCC(=O)Nc2ccc(OC)cc2[N+](=O)[O-])cc1,i,8,6,-10,-10,-6,/,5,
O=C(c1ccc(Br)o1)N1CCC(c2nc3ccccc3[nH]2)CC1,i,1,6,/,5,/,/,-1,
CCOC(=O)c1cc2c(=O)n3ccccc3nc2n(Cc2ccco2)c1=NC(=O)c1ccccc1OCC,i,-15,1,90*,-8,-6,/,8,eIF4H inh retest=51*;PABP FP inh retest=13
N#CC1(NC(=O)COC(=O)CSc2ccc(F)cc2)CCCCC1,i,-2,2,/,-2,/,-10,5,
# Next section:
SMILES,Rce1 inhib,MT1-MMP act inh,MT1-MMP act inh RFP,eIF4H inh,CSC inhib,PABP FP inh,UUG fidelity,Env fusion inh,others
C/C(=N\Nc1nc(C)cc(-c2ccccc2)n1)c1ccccc1,i,-1,-16,6,-13,-6,-29,-33,
COc1ccc(S(=O)(=O)Nc2ccc(O)c3ccccc23)cc1,i,1,1,1,/,18,-12,?,
O=C(CN1CCN(S(=O)(=O)c2ccc(Br)s2)CC1)NC1CCCCC1,/,5,-4,/,/,/,-10,3,
O=C(CSc1nnc(Cc2ccccc2)n1Cc1ccccc1)NCc1ccco1,i,0,0,4,13,10,-8,/,
O=C(/C=C/c1ccc(F)cc1)Nc1cc(S(=O)(=O)N2CCOCC2)ccc1N1CCOCC1,/,-1,5,/,/,/,-4,-30,
O=C(Nc1cccnc1)c1ccc(COCC(F)(F)F)cc1,i,6,-3,-8,3,10,-12,/,
Cc1cc(C)c(C)c(OCC(=O)N2CCN(c3ccccn3)CC2)c1,i,8,-5,-10,-31,6,-2,-2,
Cc1ccc(C)c(S(=O)(=O)NCc2ccc(C(=O)N3CCN(C)CC3)cc2)c1,i,11,4,8,17,7,/,-1,
CCCN1C2CCCC1CC(NC(=O)c1cccc(Cl)c1)C2 (stereo not given),i,-2,0,8,3,2,-6,4,
CCOC(=O)N1CCC(NC(=O)CN(c2ccc(C(C)C)cc2)S(=O)(=O)c2c(C)nn(C)c2C)CC1,i,-3,-1,-7,-6,-3,-9,3,
O=C(Nc1cc(N2CCOCC2)ncn1)NC1(C(F)(F)F)Oc2ccc(Cl)cc2O1 (stereo not given),i,/,/,0,88*,3,/,/,
C[C@@H]1CN([C@H](C)CO)S(=O)(=O)c2ccc(-c3cccc(C#N)c3)cc2O[C@H]1CN(C)C(=O)Nc1cc(F)ccc1F,/,-1,1,/,/,/,0,-9[16.7 µM],
Cc1cc(C)cc(NC(=O)/C(C#N)=C/c2cn(CC(=O)NCc3ccco3)c3ccccc23)c1,i,-1,-6,-15,40,8,/,1,
Cc1ccc2c(c1)c(C)c(C)n2CC(O)Cn1nc(C)cc1C (stereo not given),i,-4,-4,18,/,19,-11,-42,
CC(=O)NCC(=O)OCC(=O)c1ccccc1,i,-2,3,0,-5,-4,10,/,
O=C(CCCOc1ccccc1)N1CCN(c2ccccc2)CC1,i,3,5,-3,-16,1,5,/,
CCN(CC(=O)NCc1ccc(F)cc1)c1ccc(S(C)(=O)=O)cc1[N+](=O)[O-],i,-2,3,6,-13,-5,-11,-4,
O=C(CSc1cccs1)Nc1ccc2ccccc2c1,i,-1,-6,6,-3,0,-12,-108,
Cc1c(NC(=O)CSc2nnc(C(C)N(C)C)n2-c2ccccc2)c(=O)n(-c2ccccc2)n1C (stereo not given),/,1,0,/,/,/,-16,-11,
Cc1nc(NNC(=O)c2ccccc2)cc(-c2ccccc2)n1,i,2,1,0,/,-3,-6,/,
O=S(=O)(/C=C/c1ccccc1)NCCc1ccccn1,i,3,3,1,-7,-2,-19,/,
